# Bioassay records: PubChem BioAssay, several laboratories
# rRNA inh HTS – selective bacterial rRNA inhibition in E. coli | E. coli WT GFP vs humanized-ribosome RFP mutants, fluorescence, 24 h; active compounds read low; DMSO median 0, no signal -100 | GFP signal change (wild-type ribosome), % (no concentration beside the values) | hit rate 1.6% among 350,000;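 active = significant combined selectivity score with lowered wild-type GFP, culture density cut under 30%, mutant RFP and density less affected; inactive = any of these conditions unmet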; also: one replicate is shown; some compounds called inactive have numbers as strong as hits
# A1 inh – inhibitors of the anti-apoptotic protein A1, read as caspase activation; MEF A1-2A-BIM cells, Caspase-Glo 3/7 luminescence, 3 h; percent of clofoctol response, vehicle zero; caspase activation, % (concentration not given with the values); hit rate 0.066% among 330,000; AID 2462;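 active = over half of replicate activation scores above 10%, or exactly half above 10 with the replicate mean above 10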;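 also: wells of about 30 µL received 50 nL stock; many hits fall short of the cut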
# Beta2AR agonist – agonists of human beta-2 adrenergic receptor inducing internalization. P07550. Am2.2-beta2AR cells, FAP receptor internalization, flow cytometry; reference of the scale not given here. response, % (test concentration not listed). hit rate 0.43% among 340,000. AID 504454;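 active = response above a set limit, near 3 SD of response in nonfluorescent compounds, cut at about 42% in these data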;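 also: stock transfer was 100 nL into about 11 µL; a reference agonist was the positive control; negative values mostly stem from fluorescent compounds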
# ALR H2O2 inh – blocks human ALR sulfhydryl oxidase activity; P55789; purified ALR, DTT oxidation, H2O2 HRP-luminol luminescence; inhibition, % (no concentration beside the values); hit rate 3.8% among 290,000;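 active = mean and each replicate at 75% or more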;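 also: stock transfer was 7.5 nL into about 7.5 µL; 0% = neutral wells and 100% = wells with inactivated enzyme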
# LANA-H2B inh – blocks KSHV LANA binding to histone H2A/H2B. inhibition, % (concentration not given with the values). hit rate 0.6% among 320,000. Q9QR71. cell-free LANA-H2A/H2B peptide, fluorescence polarization. AID 2629; in the data active = inhibition mostly above about 10%, no sharp cut-off; inactive = mostly below about 6.7%;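 also: stock transfer was 7.5 nL into about 10 µL; 0% = median of vehicle wells and 100% = median of positive control wells; one replicate is shown; the record names a cut of 25% in any replicate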
# Target sequence (Q9QR71 whole entry, looked up): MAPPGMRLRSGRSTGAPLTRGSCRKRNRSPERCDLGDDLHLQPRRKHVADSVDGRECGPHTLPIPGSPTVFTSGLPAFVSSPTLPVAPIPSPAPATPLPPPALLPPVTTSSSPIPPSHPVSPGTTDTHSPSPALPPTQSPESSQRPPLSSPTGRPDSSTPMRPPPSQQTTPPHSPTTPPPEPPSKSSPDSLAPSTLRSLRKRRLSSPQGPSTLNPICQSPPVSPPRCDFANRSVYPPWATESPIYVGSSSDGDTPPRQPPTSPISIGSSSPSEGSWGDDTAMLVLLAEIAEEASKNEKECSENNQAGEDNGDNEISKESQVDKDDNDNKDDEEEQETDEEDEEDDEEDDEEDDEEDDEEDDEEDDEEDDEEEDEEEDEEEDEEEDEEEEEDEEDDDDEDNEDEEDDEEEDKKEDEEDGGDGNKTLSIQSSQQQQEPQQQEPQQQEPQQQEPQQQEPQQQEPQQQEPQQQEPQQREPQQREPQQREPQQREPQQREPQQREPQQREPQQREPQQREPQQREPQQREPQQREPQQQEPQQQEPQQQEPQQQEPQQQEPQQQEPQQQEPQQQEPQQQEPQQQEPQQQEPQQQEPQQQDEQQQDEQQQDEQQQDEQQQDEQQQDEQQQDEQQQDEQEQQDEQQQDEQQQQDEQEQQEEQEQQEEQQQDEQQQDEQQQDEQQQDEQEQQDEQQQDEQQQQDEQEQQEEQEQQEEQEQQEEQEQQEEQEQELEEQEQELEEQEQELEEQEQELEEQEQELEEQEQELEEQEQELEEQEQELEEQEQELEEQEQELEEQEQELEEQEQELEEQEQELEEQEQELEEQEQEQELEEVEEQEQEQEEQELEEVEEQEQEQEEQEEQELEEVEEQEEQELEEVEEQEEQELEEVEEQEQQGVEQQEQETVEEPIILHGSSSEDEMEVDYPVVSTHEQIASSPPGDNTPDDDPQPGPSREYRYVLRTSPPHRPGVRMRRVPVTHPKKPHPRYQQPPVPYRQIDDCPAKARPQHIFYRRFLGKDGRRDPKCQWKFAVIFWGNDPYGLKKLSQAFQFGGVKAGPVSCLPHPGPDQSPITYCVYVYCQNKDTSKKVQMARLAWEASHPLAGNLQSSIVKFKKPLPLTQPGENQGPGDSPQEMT
# Beta apoptosis – beta cell apoptosis inhibition; INS-1E cytokine-induced death, ATP luminescence, 48 h; percent of positive-control rescue, neutral wells zero; protection from apoptosis, % (test concentration not listed); hit rate 0.8% among 300,000; AID 435005;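 active = all replicates at 75% or more, or half of them and the mean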;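 also: 0% = cytokine-treated negative control wells and 100% = positive control rescue; higher means more ATP so stronger rescue from cytokine killing; wells of about 40 µL received 100 nL stock; the first replicate is given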
# T cruzi repl – blocks replication of Trypanosoma cruzi; T. cruzi beta-gal in NIH3T3, luminescence, 90 h; inhibition, % (concentration not given with the values); hit rate 1.4% among 300,000;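 active = mean inhibition across valid replicates above about 55%, limit read from the data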;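 also: signal also drops with host cell toxicity which is not excluded here; 0% = plate median of DMSO wells and 100% = zero luminescence signal; higher percent means less beta-gal luminescence so fewer parasites; stock transfer was 50 nL into about 50 µL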
# Calb FLC – C. albicans growth modulation with fluconazole. C. albicans CaCi-2 (fluconazole-resistant clinical isolate) + fluconazole, Alamar Blue growth, 48 h. growth inhibition, % (test concentration not listed). hit rate 0.57% among 300,000. AID 1979;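 active = most replicates above 75%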;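 also: all wells also contain fluconazole at 8 µg/ml as a sub-toxic cotreatment; 0% = median of DMSO wells and 100% = median of geldanamycin control wells; wells of about 8 µL received 7.5 nL stock; the first replicate is given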
# rRNA inh HTS OD600 – recorded beside rRNA inh HTS, whose call it bears; OD600 change, %; measured here: OD600 growth;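 optical density of the mix in the first replicate; 0 = DMSO median and -100 = no signal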
# rRNA inh HTS RFP – further read-out of rRNA inh HTS, marked with its call; RFP signal change, %; measured here: RFP humanized mutant strains;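 first replicate; 0 = DMSO median and -100 = no signal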
# * = called active by the depositor; i = inactive; . = no result given. These rows are one share of the data; rates above refer to the full screens.
# A first look:
entry	Structure	rRNA inh HTS	rRNA inh HTS OD600	rRNA inh HTS RFP	A1 inh	Beta2AR agonist
1	Cc1ccc(SCc2noc(-c3c(C)noc3C)n2)cc1	-25	-31	-7.0	-0.1	6
2	COc1ccc(NC(=O)CN(C)C(=O)C2CC(=O)N(c3ccc4c(c3)OCCO4)C2)cc1 (stereo not drawn)	12	4	0.1	0.0	5
3	C/C=C/C=C/C(=O)Nc1nccs1	6	12	7.9	0.3	11
4	COc1ccc(-c2nn(CCC#N)cc2C=C(C#N)C#N)cc1	6	9	0.1	0.4	1
5	Cc1nnc(NC(=O)c2csc3c2CCCC3)s1	20	22	-0.5	-1.1	.
6	CCOc1ccc(N(CC)S(=O)(=O)c2c(C)[nH]c(=O)[nH]c2=O)cc1	5	3	4.3	1.5	-5
7	Cc1nc(Cl)nc(N(C)c2ccccc2)c1[N+](=O)[O-]	-2	4	5.0	-0.9	34
8	O=C(COC(=O)c1ccccc1Br)NC1CCCC1	-1	-4	-1.2	-1.3	-4
9	O=C(COC(=O)Cn1nc(-c2ccccc2)oc1=O)Nc1ccc(F)cc1	12	10	1.0	-0.5	2

entry	ALR H2O2 inh	LANA-H2B inh	Beta apoptosis	T cruzi repl	Calb FLC
1	-36	-4.7	-1	8	-5
2	0	8.2	-6	-5	2
3	-1	-0.2	-6	4	1
4	13	-1.0	-6	-4	15
5	-18	-3.7	-3	-10	17
6	-12	-1.1	-8	-2	2
7	9	-3.4	4	-4	-1
8	-6	-5.7	.	-8	-7
9	-4	-9.9	3	.	.

# All compounds of this part (from the top)
entry	Structure	rRNA inh HTS	rRNA inh HTS OD600	rRNA inh HTS RFP	A1 inh	Beta2AR agonist
1	Cc1ccc(SCc2noc(-c3c(C)noc3C)n2)cc1	-25	-31	-7.0	-0.1	6
2	COc1ccc(NC(=O)CN(C)C(=O)C2CC(=O)N(c3ccc4c(c3)OCCO4)C2)cc1 (stereo not drawn)	12	4	0.1	0.0	5
3	C/C=C/C=C/C(=O)Nc1nccs1	6	12	7.9	0.3	11
4	COc1ccc(-c2nn(CCC#N)cc2C=C(C#N)C#N)cc1	6	9	0.1	0.4	1
5	Cc1nnc(NC(=O)c2csc3c2CCCC3)s1	20	22	-0.5	-1.1	.
6	CCOc1ccc(N(CC)S(=O)(=O)c2c(C)[nH]c(=O)[nH]c2=O)cc1	5	3	4.3	1.5	-5
7	Cc1nc(Cl)nc(N(C)c2ccccc2)c1[N+](=O)[O-]	-2	4	5.0	-0.9	34
8	O=C(COC(=O)c1ccccc1Br)NC1CCCC1	-1	-4	-1.2	-1.3	-4
9	O=C(COC(=O)Cn1nc(-c2ccccc2)oc1=O)Nc1ccc(F)cc1	12	10	1.0	-0.5	2
10	O=C(Nc1ccccc1C(=O)NCCN1CCOCC1)c1ccco1	.	.	.	0.8	-5
11	COc1ccc(NC(=O)CSCc2cc(=O)n3ccsc3n2)cc1	7	14	0.2	-0.2	-5
12	COc1ccc(N(CC(=O)N2c3ccccc3CC2C)S(=O)(=O)c2c(C)noc2C)cc1 (stereo not drawn)	.	.	.	0.0	0

entry	ALR H2O2 inh	LANA-H2B inh	Beta apoptosis	T cruzi repl	Calb FLC
1	-36	-4.7	-1	8	-5
2	0	8.2	-6	-5	2
3	-1	-0.2	-6	4	1
4	13	-1.0	-6	-4	15
5	-18	-3.7	-3	-10	17
6	-12	-1.1	-8	-2	2
7	9	-3.4	4	-4	-1
8	-6	-5.7	.	-8	-7
9	-4	-9.9	3	.	.
10	-1	2.4	0	0	1
11	-3	-3.3	-7	-3	-5
12	-9	-6.2	0	7	17

# The list continues.
entry	Structure	rRNA inh HTS	rRNA inh HTS OD600	rRNA inh HTS RFP	A1 inh	Beta2AR agonist
13	O=C(NN1C(=O)C2C3C=CC(C3)C2C1=O)c1ccco1 (stereo not drawn)	.	.	.	0.9	-5
14	CCCOC(=O)CN1C(=O)c2ccc(C(=O)OCCC)cc2C1=O	4	3	0.2	0.3	2
15	CCN1CCN(C(=O)c2ccc(CS(=O)(=O)Cc3ccccc3F)o2)CC1	19	15	-7.7	-0.8	-4
16	Cc1ccc(C(c2c(C)[nH][nH]c2=O)c2c(C)[nH][nH]c2=O)cc1[N+](=O)[O-]	.	.	.	-0.5	6
17	CCOC(=O)N1CCN(C(=O)c2cc(COc3c(F)cccc3F)on2)CC1	4	-3	-3.9	-0.8	-7
18	CCOc1ccc(CCNC(=O)c2cn(C)c3ccc(S(=O)(=O)N4CCOCC4)cc3c2=O)cc1OCC	-3	-3	-0.3	0.4	5
19	C=CCOC(=O)C(C#N)c1nc2ccccc2nc1N1CCN(Cc2ccc3c(c2)OCO3)CC1 (stereo not drawn)	.	.	.	2.4	-7
20	Cn1c(N)c(C(=O)COC(=O)[C@@H]2CCCN2S(=O)(=O)c2ccc(Cl)cc2)c(=O)n(C)c1=O	-23	-31	-2.9	-0.5	2
21	Cc1cccc(C(=O)N[C@H](C(=O)Nc2ccc(S(=O)(=O)NC3=NCCCCC3)cc2)C(C)C)c1	6	1	3.7	-1.1	-11
22	CCN(CC(=O)Nc1c(F)cccc1F)C(=O)c1cccc(S(=O)(=O)N2CCN(c3ccccc3)CC2)c1	-13	-14	0.8	-0.6	2
23	CC(C)c1cc(CNC(=O)CCc2nnc(CCCc3ccccc3)o2)on1	7	4	-3.8	0.9	-8
24	O=c1[nH]cc(NCCNc2ncc(C(F)(F)F)cc2Cl)c(=O)[nH]1	6	4	0.9	-0.8	2

entry	ALR H2O2 inh	LANA-H2B inh	Beta apoptosis	T cruzi repl	Calb FLC
13	-10	3.6	-7	-8	0
14	-3	-3.1	1	-10	-1
15	0	-1.3	-8	7	3
16	38	8.0	-3	-3	-5
17	-2	-0.6	-7	4	-1
18	-2	0.0	-17	1	-4
19	.	3.6	-3	57*	0
20	-9	-0.7	.	-3	-1
21	.	3.4	0	2	4
22	7	0.6	2	12	-2
23	.	-5.4	-6	-29	-8
24	0	-0.4	-3	11	-13

# Further records:
entry	Structure	rRNA inh HTS	rRNA inh HTS OD600	rRNA inh HTS RFP	A1 inh	Beta2AR agonist
25	COc1ccc(OC)c(S(=O)(=O)n2ccc(C)n2)c1	9	7	4.5	0.1	0
26	CCCN(C(=O)C(NC(=O)c1ccccc1)C(C)C)c1c(N)n(Cc2ccccc2)c(=O)[nH]c1=O (stereo not drawn)	0	3	-1.9	-0.2	4
27	Cc1cccc(NC(=S)NC2CC3CCCC(C2)N3CC(C)C)c1 (stereo not drawn)	.	.	.	1.0	1
28	NS(=O)(=O)c1ccc(CCNS(=O)(=O)c2cccc(C(=O)O)c2)cc1	7	10	-1.6	-0.8	1
29	Cc1cccnc1NC(=O)Nc1cccc2ccccc12	.	.	.	-0.9	16
30	CS(=O)(=O)N(Cc1nnc(-c2cccs2)o1)c1ccc(Cl)cc1F	.	.	.	-0.8	-18
31	Cc1ccc(Sc2ccc(/C=N/O)cc2[N+](=O)[O-])cc1	.	.	.	1.8	58*
32	COc1ccc(NC(=O)NNC(=O)COc2ccc3ccccc3c2)cc1	3	13	-1.1	-1.3	-2
33	Cc1cccc(C(=O)N(Cc2ccco2)c2c(N)n(Cc3ccccc3)c(=O)[nH]c2=O)c1	4	12	2.4	-0.3	-1
34	CCC(=O)N(CCC1(C(C)C)CCOC(C)(C)C1)Cc1ccco1 (stereo not drawn)	.	.	.	-0.2	-6
35	COCCNC(=O)c1cccc(OC2CCN(C(C)COc3ccccc3)CC2)c1 (stereo not drawn)	-4	3	-4.5	1.0	2
36	Cc1ccc2cc3c(NC(=O)c4ccco4)nn(C)c3nc2c1	.	.	.	-0.8	-1

entry	ALR H2O2 inh	LANA-H2B inh	Beta apoptosis	T cruzi repl	Calb FLC
25	2	1.2	-5	-1	0
26	.	-3.0	-3	.	.
27	.	3.7	-4	0	11
28	-7	-0.2	0	-22	1
29	12	0.0	2	-9	-5
30	-7	-4.4	4	7	4
31	-5	4.9	-6	14	43
32	-6	4.5	-12	-7	-17
33	-2	1.0	-2	.	.
34	2	5.5	-4	18	-9
35	-5	3.7	-4	50	0
36	.	-1.4	-4	-7	43

# The list goes on:
entry	Structure	rRNA inh HTS	rRNA inh HTS OD600	rRNA inh HTS RFP	A1 inh	Beta2AR agonist
37	CC1CCCCN1C(=O)c1cc(S(=O)(=O)N2CCOCC2)ccc1Cl (stereo not drawn)	11	4	2.0	0.8	-2
38	CC1(C)CN(C(Cc2ccccc2)C(N)=O)C1=O (stereo not drawn)	4	8	1.8	-0.4	-4
39	CCc1nn(CCCC(=O)NC(C)c2ccccc2)c(=O)c2cc3occc3n12 (stereo not drawn)	4	6	1.9	0.3	-1
40	CC(C)(C)c1nnc2sc(SCC(=O)N3CCc4ccccc43)nn2c1=O	18	13	0.4	0.5	16
41	CC1CCN(CCCNC(=O)c2ccc(Cn3c(=S)[nH]c4ccc(Br)cc4c3=O)cc2)CC1	.	.	.	0.3	.
42	Cc1ccccc1CSCC(=O)NCCSc1ccccn1	-23	-29	-7.2	0.9	-1
43	CC(NCCc1ccc(S(N)(=O)=O)cc1)C(=O)NCCc1ccc(F)cc1 (stereo not drawn)	7	9	0.1	1.1	10
44	CC1CCC(NC(=O)Cn2cc3c(n2)CCCC3)CC1 (stereo not drawn)	7	7	-2.1	0.5	5
45	CCOc1cc(/C=C2\CCCc3c2nc2ccccc2c3C(=O)O)ccc1OC	52	5	8.4	0.2	0
46	CC1=C(CCN2CCN(C3CCCC3)C(CCO)C2)C(C)(C)CCC1 (stereo not drawn)	-11	-23	-1.0	0.2	-6
47	CCOC(=O)c1c(-c2ccc(F)cc2)csc1NC(=O)c1c(-c2ccccc2)noc1C	.	.	.	-1.0	2
48	O=C(COC(=O)c1cncc(Br)c1)NCc1ccco1	.	.	.	0.1	1

entry	ALR H2O2 inh	LANA-H2B inh	Beta apoptosis	T cruzi repl	Calb FLC
37	1	2.4	1	.	.
38	0	1.1	-1	1	-6
39	5	2.0	-1	5	29
40	i	6.4	-3	5	3
41	37	2.0	8	-1	0
42	37	2.3	-2	-12	13
43	.	-6.2	-3	-21	-8
44	.	-0.2	-1	-11	-8
45	-13	85*	-2	-6	2
46	-14	-0.8	5	30	-45
47	-11	-2.1	5	36	16
48	10	4.1	-2	27	-11

# Next structures follow.
entry	Structure	rRNA inh HTS	rRNA inh HTS OD600	rRNA inh HTS RFP	A1 inh	Beta2AR agonist
49	Oc1ccc(/C=N/Nc2ccc(Cl)nn2)cc1O	6	7	-4.1	-0.8	-1
50	Cc1ccc(S(=O)(=O)NC(=O)NCCCCNC(=O)NS(=O)(=O)c2ccc(C)cc2)cc1	.	.	.	0.1	-1
51	COC(=O)C1C2C=CC3(CN(c4cccc(Cl)c4)C(=O)C13)O2 (stereo not drawn)	8	10	-0.7	0.0	4
52	CCOc1cc(NC(=O)c2ccccc2C)c(OCC)cc1NC(=O)C1=Cc2ccccc2OC1	.	.	.	.	2

entry	ALR H2O2 inh	LANA-H2B inh	Beta apoptosis	T cruzi repl	Calb FLC
49	99*	3.0	6	-17	.
50	6	-1.9	-1	-7	0
51	-15	-4.0	-11	-7	-8
52	-14	0.0	1	4	-10
